Bioassay records deposited in PubChem BioAssay by SRMLSC.
H5N1 antiviral – antiviral screen in MDCK cells, H5N1 avian flu; cytopathic effect, luminescence, 72 h; hits give high values; no value below 0 was filed and about half of the inactive calls have no number; reference of the scale not given here; inhibition, % at 50 µM; 0.07% of 96,000 active; AID 740; in the data active means inhibition above about 25%
An asterisk follows results filed as active; i = inactive.

| SMILES | H5N1 antiviral |
| --- | --- |
| CC(=O)c1cnn(-c2cc(Oc3ccc(F)cc3)ncn2)c1C | 0.1 |
| COCCNCC(=O)NC12CC3CC(CC(C3)C1)C2 | i |
| COc1cc(N=c2ssnc2Cl)cc(OC)c1OC | 2.2 |
| Cc1nnc(Nc2ccccc2)n(N)c1=O | 1.0 |
| N#Cc1nc(-c2ccco2)oc1N1CCN(c2ccccc2)CC1 | 0.0 |
| CC(C)(C)C1CCc2onc(C(=O)Nc3cccnc3)c2C1 (stereo not drawn) | 0.2 |
| COC(=O)CCC(=O)Nc1sc2c(c1C#N)CCCC2 | 0.8 |
| O=C(O/N=C1\CCS(=O)(=O)c2sccc21)c1ccccc1 | i |
| COC(=O)C1=C(C)OC(N)=C(C#N)C1c1ccccc1F (stereo not drawn) | i |
| O=C(CN1CCC(n2nnc3cc(F)ccc32)CC1)NNC(=O)c1ccccc1 | i |
| Cn1c(=O)oc2cc(S(=O)(=O)N3CCN(Cc4ccc5c(c4)OCO5)CC3)ccc21 | 1.2 |
| Cc1ccc(C(=O)CS(C)(=O)=O)cc1 | i |
| COc1ccc(-c2nc(SC)n(C)c(=O)c2C#N)cc1OC | 1.2 |
| CSC1=NCCN1C(=O)c1cccc(Br)c1 | 0.4 |
| COc1ccccc1OCCn1cc(C(=O)c2ccco2)c2ccccc21 | 1.5 |
| O=C1Cn2c(nc3ccccc32)N1c1ccccc1F | 0.5 |
| c1cc2ccc3ccc(-n4cnnn4)c4ccc(c1)c2c34 | 1.7 |
| CCOC(=O)c1cccc(Nc2ncnc3ccc(C)cc23)c1 | 3.0 |
| NC(=O)C1(N2CCCCC2)CCN(C(=O)c2cccs2)CC1 | i |
| Cc1ccc(C)c(OCC(O)CN2CCC(C)CC2)c1C (stereo not drawn) | i |
| Cc1cc(C=O)c(C)n1CC1CCCO1 (stereo not drawn) | 1.5 |
| CCSc1nc(-c2ccc(OC)cc2)ccc1C#N | 1.2 |
| Cc1sc2nc(C3CC3)nc(SCC(=O)N3CC(=O)Nc4ccccc43)c2c1C | 2.6 |
| O=S(=O)(c1ccc(Cl)cc1)N1CCN(C2CCN(Cc3ccccc3)CC2)CC1 | 0.9 |
| Cc1ccc(S(=O)(=O)N2CCCC2C(=O)OCc2nc3ccccc3s2)cc1 (stereo not drawn) | 1.1 |
| CCN1CCc2c(sc(NC(=S)NC(=O)c3ccccc3)c2C#N)C1 | 1.5 |
| COc1ccccc1CCNC(=O)C1CCCO1 (stereo not drawn) | 0.9 |
| CCn1c(COc2cccc(OC)c2)nnc1SCC(=O)N1CCOCC1 | 0.5 |
| Cc1nnc(NC(=O)c2ccc3ccccc3c2)o1 | 2.4 |
| CN(C)c1ncc(S(=O)(=O)c2ccc(Cl)cc2)c(-c2ccccc2)n1 | 3.1 |
| Cc1ccc(Cl)cc1N1CCN(C(=O)c2cn(C)c(=O)c3c2c2ccccc2n3C)CC1 | i |
| Cc1cc(NC(=O)c2cc(-c3ccncc3)nc3c(C)cccc23)no1 | i |
| CCCCN1C(=O)C(NC(=O)c2cccnc2)(C(F)(F)F)C2=C1CC(C)(C)CC2=O (stereo not drawn) | i |
| Cn1c(=O)n(C)c2cc(NC(=O)C(F)(F)F)ccc21 | i |
| Cc1cccc(C(=O)Nc2onc(C)c2C#N)c1 | 4.1 |
| CN(C)c1ccc(-c2nn3c(-c4ccc(Cl)cc4)nnc3s2)cc1 | 1.2 |
| Cc1ccc(S(=O)(=O)N(CC(=O)N/N=C/c2cccc(Cl)c2)c2cccc3cccnc23)cc1 | i |
| O=C(CSc1nc2ccncc2[nH]1)Nc1ccccc1C(F)(F)F | 0.8 |
| CCCn1c(NC(=O)c2cccc(S(=O)(=O)N3CCCC3)c2)nc2ccccc21 | i |
| C=CCn1c(COc2ccc(Cl)cc2)nnc1SCc1ccc(C#N)cc1 | 1.0 |
| O=C(CSc1nnc(NC(=O)C2CC2)s1)Nc1ccc(F)cc1 | i |
| COc1ccc(C2C(C(N)=O)=C(C)Nc3nc(-c4cccc(Cl)c4)nn32)cc1OC (stereo not drawn) | i |
| CO/N=C\Cc1oc(=O)c(NC(=O)c2ccccc2)cc1C(=O)OC | 3.7 |
| C=CCN=C(NC#N)SCC(=O)NCc1ccccc1 | 0.2 |
| COc1ccc(C2=NOC(C(=O)NCc3ccccc3)C2)cc1 (stereo not drawn) | i |
| CCOC(=O)c1c(NC(=O)c2ccccc2C)sc2c1CC(C)(C)OC2 | i |
| CCOC(=O)CNC(=O)C1c2cc(OC)c(OC)cc2C(=O)N(C)C1c1ccccc1F (stereo not drawn) | i |
| COCCCNC(=O)C(F)(F)C(F)(F)C(=O)NCCCOC | i |
| CCCCNC(=O)/C=C/c1ccc(OC)c(Br)c1 | 0.8 |
| CCC(=O)c1cn(CC(=O)NCc2cccnc2)c2ccccc12 | 0.2 |

Following part
| SMILES | H5N1 antiviral |
| --- | --- |
| N#Cc1ccccc1CSc1ccccn1 | 0.8 |
| C1=C(c2c[nH]c3ccccc23)CCNC1 | i |
| Cc1ccc(S(=O)(=O)NCCNC(=O)c2cc(OCC(F)(F)F)ccc2OCC(F)(F)F)cc1 | 0.2 |
| CC1CCN(C(=O)N[C@@H](Cc2ccccc2)C(=O)O)CC1 | i |
| CCC(C)(C)n1nnnc1C(C(C)C)N(CCCO)Cc1cc2cc(C)ccc2[nH]c1=O (stereo not drawn) | 0.7 |
| CN(C)P1(N(C)C)=Nc2c(c(N)nn2C)C(c2ccccc2)=N1 | 0.1 |
| COC(=O)C1=C(C)N(C)C(=O)NC1c1ccc(O)c(OC)c1 (stereo not drawn) | 1.2 |
| CNC(=O)CSc1nnnn1-c1ccc(C)cc1C | 1.7 |
| COC(=O)NC1CCC(CC2CCC(NC(=O)OC)CC2)CC1 (stereo not drawn) | 0.8 |
| CCOC(=O)c1cnc2sccn2c1=O | 0.8 |
| COCCn1c(C)cc(C(=O)COc2nc3ccccc3nc2C)c1C | 2.0 |
| CC1CN(S(=O)(=O)c2ccc(NC(=O)c3ccco3)cc2)CC(C)O1 (stereo not drawn) | i |
| Cc1ccc(S(=O)(=O)N(CC(=O)N2CCOCC2)CC(=O)N2CCOCC2)cc1 | i |
| Cc1c(C(=O)NCc2ccccn2)oc2ccccc12 | i |
| COc1cc(S(=O)(=O)NCCCN2CCOCC2)ccc1Cl | 0.4 |
| CCc1nc2ccccc2c(C(=O)O)c1C | 0.2 |
| CC(C)[C@H](NC(=O)NCCc1ccccc1)C(=O)O | 0.8 |
| COc1ccc(NC(=O)Cc2nc3ccccc3[nH]2)cc1 | i |
| CCCOC(=O)c1ccc(Nc2cc(C)nc3ncnn23)cc1 | i |
| COC(=O)c1ccc(CSc2nc3cc(Cl)ccc3s2)o1 | i |
| C=CCOc1ccccc1CNCCCN1CCOCC1 | 0.2 |
| Cc1ccc(-c2nc(CS(=O)CC(=O)NCc3ccccn3)c(C)o2)cc1 (stereo not drawn) | i |
| Cc1nc2ccccc2c2c1C(=O)N(CCC1=CCCCC1)C2=O | i |
| O=C(Nc1ccc(F)cc1)N1CCn2c(nc3ccccc32)C1 | i |
| O=C(NC1CCS(=O)(=O)C1)C1CCCCN1S(=O)(=O)c1ccc(Cl)cc1 (stereo not drawn) | 0.7 |
| Cc1ccc(C(=O)C[n+]2cccc3ccccc32)cc1 | 0.2 |
| COc1cccc(SCc2noc(C(=O)NCC3CCCO3)c2C(=O)O)c1 (stereo not drawn) | 0.5 |
| Cc1c(C(=O)N2CCN(CCc3ccccc3)CC2)oc2ccccc12 | i |
| Cc1ccc(C)n1-n1cnc2sc3c(c2c1=O)CCC3 | 1.1 |
| Cc1nn2c(N)csc2nc1=O | 3.2 |
| COC(=O)c1cc(C(=O)OC)n(Cc2ccc(F)cc2)n1 | i |
| CCCCNC(=O)c1sc2nc(C)cc(COC)c2c1-n1cccc1 | 0.2 |
| CN(C(=O)c1ccco1)c1nc2c(s1)CCCC2 | 1.2 |
| CCOC(=O)Nc1c(C(=O)OC)[nH]c2cccc(OC)c12 | i |
| Cc1ccc(NC(=O)CSc2nnc(CCNC(=O)OC(C)(C)C)o2)c(C)c1 | i |
| Cc1[nH]nc2c1-c1nc3ccccc3nc1C(C)(C)C2 | 3.6 |
| Cc1ccccc1NC(=O)c1ccc2c(c1)OCCO2 | i |
| CN(C)C1=NC(N(C)C)=NP(N(C)C)(N(C)C)=N1 | 0.5 |
| COc1cccc(NC(=O)Nc2cccn(Cc3ccccc3)c2=O)c1 | i |
| CC(C)CNC(=O)CSc1nnc(-c2ccccn2)n1Cc1ccccc1 | 0.3 |
| CCC(=O)Oc1cccc(C(=O)Nc2ccc(-c3nnc(-c4ccco4)o3)cc2)c1 | i |
| Nc1ccc(SCCN2C(=O)c3ccccc3C2=O)cc1 | i |
| CCS(=O)(=O)CCSc1nc2ccccc2s1 | 0.2 |
| CCCOc1cccc(C2/C(=C(/O)c3ccc(F)cc3)C(=O)C(=O)N2CCN(C)C)c1 (stereo not drawn) | 0.1 |
| c1cc(-c2nnc3n2CCCCC3)ccn1 | 0.3 |
| Cc1ccccc1-n1c(=O)cc(N2CCc3ccccc3C2)[nH]c1=O | i |
| COc1ccc(NC(=O)NC2CC3CCCC(C2)N3Cc2ccccc2)cc1 (stereo not drawn) | i |
| CC(C)CC(=O)Nc1ccccc1-c1nnn(CC(=O)N2CCOCC2)n1 | i |
| Brc1ccc(/C=C/C=N/Nc2nc3ccccc3s2)cc1 | i |
| NC(=O)CN1CCN(C(=O)Nc2ccccc2)CC1 | 0.3 |

Fetched by structure from above, 6 records:
| SMILES | H5N1 antiviral |
| --- | --- |
| COc1cccc(SCc2noc(C(=O)NCC3CCCO3)c2C(=O)O)c1 (stereo not drawn) | 0.5 |
| CN(C)C1=NC(N(C)C)=NP(N(C)C)(N(C)C)=N1 | 0.5 |
| Cc1ccc(NC(=O)CSc2nnc(CCNC(=O)OC(C)(C)C)o2)c(C)c1 | i |
| CCCOc1cccc(C2/C(=C(/O)c3ccc(F)cc3)C(=O)C(=O)N2CCN(C)C)c1 (stereo not drawn) | 0.1 |
| c1cc(-c2nnc3n2CCCCC3)ccn1 | 0.3 |
| CC(C)CC(=O)Nc1ccccc1-c1nnn(CC(=O)N2CCOCC2)n1 | i |

(next part)
| SMILES | H5N1 antiviral |
| --- | --- |
| Cc1noc(C)c1COC(=O)c1ccccc1Sc1ccccc1C#N | 0.8 |
| NC(=O)c1c(NC(NC(=O)c2ccco2)(C(F)(F)F)C(F)(F)F)sc2c1CCCC2 | i |
| CN(C)S(=O)(=O)c1ccc(NC(=O)c2cccnc2)cc1 | 0.2 |
| COc1ccc2nc(NC(C)=O)sc2c1 | 1.5 |
| CCOc1cc(/C=C2/SC(=O)N(CC(=O)N3CCc4ccccc4C3)C2=O)ccc1OCC(=O)O | 2.1 |
| Cc1ccccc1N=C1Nc2ccccc2CS1 | 0.4 |
| O/N=C/c1ccccc1OCc1ccc(Cl)cc1 | i |
| CC(C)Oc1cccc(C(=O)O)c1 | 0.4 |
| CS(=O)(=O)N1CCN(c2nc(-c3ccc(F)cc3)cs2)CC1 | i |
| Cc1ccc(S(=O)(=O)c2nc(N3CCOCC3)sc2Cl)cc1 | 1.1 |
| O=C(C/C=N/OCc1ccc(Cl)cc1Cl)c1ccc(Cl)cc1 | i |
| COC(=O)Nc1ccc(S(=O)(=O)N2CCCCC2)cc1 | 0.7 |
| COc1ccccc1CCNCc1ccc(OC)c(OCc2ccccc2)c1 | i |
| CCc1nnc(NC(=O)CSc2nc(C3CCCCC3)nc3ccccc23)s1 | i |
| CCN=C1SC(CC(=O)Nc2ccc(C)cc2)C(=O)N1CC (stereo not drawn) | i |
| CSCc1cc(N(C)C)nc(SCc2ccc(Cl)cc2Cl)n1 | i |
| CN(C(=O)c1cccnc1)c1nnc(-c2cnccn2)s1 | i |
| O=C(Nc1ccc(S(=O)(=O)N2CCCc3ccccc32)cc1)C1CCCO1 (stereo not drawn) | 3.5 |
| Cc1ccsc1-c1ccnc(-n2cccc2)n1 | 5.3 |
| CCNC(=O)CN(c1ccccc1)S(=O)(=O)c1ccc(Cl)cc1 | 0.3 |
| O/N=C(/CCc1ccccc1)C1(O)CCCCC1 | 0.6 |
| CCCCN1C(=O)C2ON(c3ccccc3C)C(c3ccco3)C2C1=O (stereo not drawn) | i |
| COc1ccccc1-c1nnc(NC(=O)c2ccccc2F)o1 | 1.4 |
| CCOC(=O)C(C)c1nc2ccccc2[nH]c1=O (stereo not drawn) | 0.1 |
| COC(=O)c1cc(=O)n(CCc2ccccc2)c(=Nc2ccc(F)cc2)s1 | i |

Brought forward from above: two compounds; new compounds follow.
| SMILES | H5N1 antiviral |
| --- | --- |
| CCOC(=O)C(C)c1nc2ccccc2[nH]c1=O (stereo not drawn) | 0.1 |
| COC(=O)c1cc(=O)n(CCc2ccccc2)c(=Nc2ccc(F)cc2)s1 | i |
| COc1cccc(/C=N/NC(=O)C(=O)NCc2cccnc2)c1 | 0.5 |
| Cc1nc2ccccc2nc1N1CCCCC1 | 0.8 |
| CCn1c(CNC(=O)c2cccc(C)c2)nnc1SCC(=O)NC1CCCCC1C (stereo not drawn) | i |
| COC(=O)c1ccccc1NC(=O)c1cc2ncc(Br)cn2n1 | 2.0 |
| COC(=O)c1cc(Br)c(=O)n(CCc2ccccc2)c1 | 1.4 |
| CCC(C)N(C(=O)c1csnn1)C(C(=O)NC(C)(C)C)c1ccccc1 (stereo not drawn) | i |
| O=C(COc1ccc2ccccc2c1)Nc1nc2ccccc2[nH]1 | 1.0 |
| COc1cccc(OCCOc2cccc(/C=N/n3cnnc3)c2)c1 | 0.2 |
| O=C(ON=C1CCN(c2ccc([N+](=O)[O-])cc2)CC1)c1ccccc1 | i |
| CO/N=C/c1ccc(N2CCN(C(=O)c3cccc(Cl)c3)CC2)c([N+](=O)[O-])c1 | 1.5 |
| COc1ccccc1N(C(=O)Cn1nnc2ccccc21)C(C(=O)NCc1ccco1)c1ccc(C)o1 (stereo not drawn) | i |
| Cc1cc(C(=O)NC2CCCc3ccccc32)no1 (stereo not drawn) | 0.5 |
| CC(C)OC(=O)c1nnn(-c2nonc2N)c1CN1CCCCCC1 | 0.1 |
| Nc1ccc(S(=O)(=O)N2CCCCC2c2cccnc2)cc1 (stereo not drawn) | 0.6 |
| Nc1ccc(-c2ccc(N)cc2C(F)(F)F)c(C(F)(F)F)c1 | i |
| O=C(CN1C2=NCCCN2c2ccccc21)c1cccs1 | i |
| O=C(Nc1ccc(Br)cc1)c1cccn1-c1ncc(C(F)(F)F)cc1Cl | i |
| COC(=O)c1cccc(NC(=O)CSc2nnc(C)n2Cc2ccccc2)c1 | i |

These rows are one share of the data; count on the stated rates, not on these rows.
